p53 PUMA act: re-activators of the mutant p53 pathway; SW480 PUMA-promoter luciferase, p53 mutant reactivation; actives 1.5% (n = 28,000); activation, % at 9.98 µM; in the data active = activation above about 52%
Active calls of the source: *.

no. | smiles | p53 PUMA act
1 | CCc1ccc(-c2cc(C(=O)Nc3ccc(S(=O)(=O)NC(C)=O)cc3)c3ccccc3n2)cc1 | 0.8
2 | COC(=O)CCC(=O)NC(=S)Nc1c(C)cccc1C | 2.1
3 | Cc1noc(C)c1NC(=O)N(C)C[C@@H]1Oc2ccc(NS(=O)(=O)c3cccs3)cc2C(=O)N([C@@H](C)CO)C[C@H]1C | 5.1
4 | C[C@@H]1CN([C@@H](C)CO)C(=O)c2cc(NC(=O)Cn3cnnn3)ccc2O[C@H]1CN(C)Cc1ccc(Cl)c(Cl)c1 | 10.2
5 | Cc1cc(NS(=O)(=O)c2ccc(Nc3nc(-c4ccc(O)cc4)cs3)cc2)no1 | 9.4
6 | CC(C)Oc1ccccc1-c1nc(SCC(=O)O)n[nH]1 | -1.3
7 | Nc1nnc(SCC(=O)NC23CC4CC(CC(C4)C2)C3)s1 | -6.3
8 | Cc1cc(C)nc(SCC(=O)Nc2nonc2N)n1 | 5.9
9 | CC(NC(=O)c1ccccc1NC(=O)c1ccccc1)C(=O)N1CCOCC1 (stereo not given) | -12.6
10 | O=C(NCCCn1ccnc1)c1csc2ccccc12 | -9.8
11 | CSc1ccccc1NC(=O)CN(C)S(=O)(=O)c1ccc(F)cc1 | 1.4
12 | Cc1c(CCC(=O)O)c(=O)n2c([nH]c3ccccc32)c1C#N | -7.3
13 | COc1cc(Br)c(CCNC(=O)c2ccco2)cc1OC | 24.6
14 | Cc1ccc(S(=O)(=O)N(CC(=O)O)c2ccc(Cl)c(C(F)(F)F)c2)cc1 | -7.3
15 | O=C(Nc1sccc1C(=O)NCc1ccco1)c1cccnc1 | 18.9
16 | Cc1nn(-c2nnc(C)c(=O)[nH]2)c(C)c1SCC(=O)Nc1ccc(C(C)C)cc1 | -4.2
17 | O=c1c2ccccc2nc2n1CCC2O (stereo not given) | 4.5
18 | OCCN1CCN(CC/C=C2/c3ccccc3Sc3ccc(C(F)(F)F)cc32)CC1 | -3.1
19 | O=c1c2ccccc2[nH]c(=S)n1CCN1CCC(=C(c2ccc(F)cc2)c2ccc(F)cc2)CC1 | 3.7
20 | COc1ccc(OC)c(S(=O)(=O)N(C)CC(=O)N2CCN(c3ccccc3)CC2)c1 | 4.5
21 | Cc1ccc(-n2nnnc2SCC(=O)Nc2ccc3c(c2)COC3=O)cc1C | 4.8
22 | c1ccc(Oc2cccc(OCCCn3cncn3)c2)cc1 | -6.1
23 | CS(=O)(=O)N(CC(N)=O)Cc1ccc(Cl)cc1 | 17.3
24 | O=C(CCc1nc2ccccc2[nH]1)Nc1ccc(F)cc1 | 24.7
25 | COc1ccc(C)cc1S(=O)(=O)N(C)CC(N)=O | 2.2
26 | O=C(NCCN1CCOCC1)c1ccc(NC(=O)C2COc3ccccc3O2)cc1 (stereo not given) | -3.9
27 | Cc1ccc(S(=O)(=O)NCCSc2nnc(N)s2)cc1 | -11.3
28 | Cc1ccc(-c2noc(CSc3nnc(-c4ccccc4)n3C)n2)cc1 | -2.9

Filtered by structure, the entries above containing a halogen
no. | smiles | p53 PUMA act
4 | C[C@@H]1CN([C@@H](C)CO)C(=O)c2cc(NC(=O)Cn3cnnn3)ccc2O[C@H]1CN(C)Cc1ccc(Cl)c(Cl)c1 | 10.2
11 | CSc1ccccc1NC(=O)CN(C)S(=O)(=O)c1ccc(F)cc1 | 1.4
13 | COc1cc(Br)c(CCNC(=O)c2ccco2)cc1OC | 24.6
14 | Cc1ccc(S(=O)(=O)N(CC(=O)O)c2ccc(Cl)c(C(F)(F)F)c2)cc1 | -7.3
18 | OCCN1CCN(CC/C=C2/c3ccccc3Sc3ccc(C(F)(F)F)cc32)CC1 | -3.1
19 | O=c1c2ccccc2[nH]c(=S)n1CCN1CCC(=C(c2ccc(F)cc2)c2ccc(F)cc2)CC1 | 3.7
23 | CS(=O)(=O)N(CC(N)=O)Cc1ccc(Cl)cc1 | 17.3
24 | O=C(CCc1nc2ccccc2[nH]1)Nc1ccc(F)cc1 | 24.7

Copied from the list.
entry 7 in p53 PUMA act has -6.3
entry 18 in p53 PUMA act has -3.1

Along the list, from the results shown.
Entries 11–16 in p53 PUMA act, in turn: 1.4, -7.3, 24.6, -7.3, 18.9, -4.2

An excerpt, and most or all hits are left out here.
